Compound activity from PubChem BioAssay.
gsp agonist: agonists of gsp mutant (McCune-Albright syndrome); 340,000 tested, 0.13% active; gsp mutant cells, cAMP HTRF, 30 min; control for the full effect not named in the record; AID 624287; Potency, µM (top dose mostly 76.9 µM), for the others: at the top dose activation (cAMP increase), actives largely listed as activators; active = well fitted activation curve with a large enough effect; inconclusive = small, poorly fitted or top-dose-only effect, or another doubt; inactive = no such curve, though single readings can be large or run the other way; cell line not stated here;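 further: phosphodiesterase inhibitor Ro 20-1724 added with compounds to block cAMP breakdown; potency means the concentration at half of the fitted maximal effect; nearly all actives have a fitted effect of over 60% in size; about a fifth of the inactives were tested at one dose only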
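Cells in DMEM/10% FBS with G418 were pretreated with compounds in DMSO plus […] (300 uM stock) for 30 min at 37C. cAMP was measured by HTRF (cAMP-d2 plus anti-cAMP antibody-K) after 30 min at room temperature.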
Menin-MLL FL inh: inhibitors of human menin-MLL interaction, wild-type MLL peptide; FP activity change, % at 61.4 µM; 290,000 tested, under 10 active; Fluorescence polarization, fluorescein-MLL peptide displacement from menin; AID 1766; inconclusive = falling polarisation curve, or a change in total fluorescence; inactive = total fluorescence flat and polarisation flat or rising; no compound was filed as active; the % refers to the polarisation; negative = inhibition;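 further: % of control where 0% means no effect; inhibitors lower the polarisation; unlabelled MLL peptide was the positive control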
TRPV1 PAM: human TRPV1 potentiation; Q8NER1; TRPV1-expressing cells, Fluo-8 calcium influx, capsaicin EC20 potentiation; host cell line not named in the record; control for the full effect not named in the record; potentiation, % at 8.33 µM; 320,000 tested, 0.02% active; AID 540277; active means potentiation above 80%; inconclusive means 30% to 80%; inactive means below 30%; further: 0% is about no effect
Target sequence (Q8NER1 whole entry, looked up): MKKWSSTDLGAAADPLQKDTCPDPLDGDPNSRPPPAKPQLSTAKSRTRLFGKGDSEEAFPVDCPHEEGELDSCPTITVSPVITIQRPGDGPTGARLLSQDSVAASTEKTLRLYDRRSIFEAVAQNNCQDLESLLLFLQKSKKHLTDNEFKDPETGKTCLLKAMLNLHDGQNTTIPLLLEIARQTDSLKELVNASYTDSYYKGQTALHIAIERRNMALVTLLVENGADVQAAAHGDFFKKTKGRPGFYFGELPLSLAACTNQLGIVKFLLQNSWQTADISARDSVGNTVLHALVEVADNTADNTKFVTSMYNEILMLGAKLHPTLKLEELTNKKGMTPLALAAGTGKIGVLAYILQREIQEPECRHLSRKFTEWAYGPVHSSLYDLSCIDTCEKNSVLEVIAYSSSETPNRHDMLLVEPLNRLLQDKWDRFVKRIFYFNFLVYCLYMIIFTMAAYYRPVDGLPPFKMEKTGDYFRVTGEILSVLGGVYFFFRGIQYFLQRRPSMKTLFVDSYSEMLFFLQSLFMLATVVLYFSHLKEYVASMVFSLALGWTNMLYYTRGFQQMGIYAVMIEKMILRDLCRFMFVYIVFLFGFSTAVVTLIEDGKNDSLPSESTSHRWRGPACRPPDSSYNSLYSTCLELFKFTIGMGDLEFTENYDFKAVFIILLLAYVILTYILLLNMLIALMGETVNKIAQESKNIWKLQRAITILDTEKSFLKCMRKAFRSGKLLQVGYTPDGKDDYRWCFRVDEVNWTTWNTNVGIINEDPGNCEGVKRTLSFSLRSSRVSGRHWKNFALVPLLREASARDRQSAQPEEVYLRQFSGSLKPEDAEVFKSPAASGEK
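Cells expressing TRPV1 were dye-loaded with Fluo-8 and read kinetically: 10 s baseline, 3 min after compound (agonist portion), then 2 min after EC20 capsaicin (allosteric enhancer portion). Calcium-bound dye fluorescence at 480/520 nm.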
CtBP-E1A inh: inhibitors of CtBP/E1A interaction; AlphaScreen GST-E1A/His-CtBP binding, 1536-well; hits give low values; control for the full effect not named in the record; activity change, % (test concentration not listed); 340,000 tested, 0.49% active; AID 651724; in the data active means activity change below about -65%; inconclusive means about -30% to -65%; inactive means above about -30%; further: on the % scale 0 is the no-effect control and ±100 the full control effect; compound concentration not given in the record
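Steps: dispense buffer (Tris pH 8.0, NaCl 300 mM, TCEP 1 mM, BSA, Tween 20); add 5X protein mix (GST-E1A, His-CtBP, 125 nM each); pin 23 nL compound; 2 h at 37 °C, dark; add 5X beads (50 ug/mL); 1 h; read.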
ClpP mod: qHTS Assay for Activators of ClpP; AID 651965, 2013; ATP-dependent Clp protease proteolytic subunit (Bacillus subtilis (strain 168)), P80244; 340,000 tested, 1.9% active; purified B. subtilis ClpP, FRET peptide cleavage, 20 min; Potency, µM (top dose mostly 57.5 µM), without a hit: top-dose activity change, negative = active; active = well fitted falling curve with a large enough effect; inconclusive = small, poorly fitted or top-dose-only effect; inactive = no such curve, though single readings can be large or run the other way; further: potency means the concentration at half of the fitted maximal effect; the source files actives as falling curves though it sought activators and does not explain the sign; nearly all actives have a fitted effect of over 65% in size; many hits overshoot -100%
Target sequence (P80244 whole entry, looked up): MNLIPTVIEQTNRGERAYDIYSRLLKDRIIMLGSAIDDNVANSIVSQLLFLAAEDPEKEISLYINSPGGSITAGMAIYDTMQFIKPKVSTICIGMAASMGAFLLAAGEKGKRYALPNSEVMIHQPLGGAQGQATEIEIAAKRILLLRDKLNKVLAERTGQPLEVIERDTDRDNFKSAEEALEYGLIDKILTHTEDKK
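Purified B. subtilis ClpP, 10 microg/mL final in Tris/HCl pH8 with KCl, BSA, glycerol and Tween-20, cleaved an Abz/nitrotyrosine-quenched decapeptide. Fluorescence (ex 320, em 430) was read at 0 and 20 min at room temperature. Delta was normalized to 5.8 microM ADEP and DMSO/no-enzyme controls.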
gsp antag: antagonists of gsp mutant (McCune-Albright syndrome) | gsp-mutant cells, cAMP HTRF, 30 min; control for the full effect not named in the record | Potency, µM (series often up to 76.9 µM), for the others: at the top dose activity change, negative = inhibition, usual class: inhibitors | 340,000 tested, 0.4% active; active = falling curve of any shape with a large fitted effect; inconclusive = falling curve, mostly with a smaller effect; inactive = flat or rising curve; cell line not stated here;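 further: intracellular cAMP measured with PDE inhibitor Ro 20-1724 present during compound exposure; potency means the concentration at half of the fitted maximal effect; on the % scale 0 is the no-effect control and ±100 the full control effect; nearly all actives have a fitted effect of over 65% in size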
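Cells in G418 medium, seeded 16-24 h, 37C; buffer exchange to DPBS + 1 mM CaCl2, 0.5 mM MgCl2, 0.05% BSA; cpds in DMSO + […] (300 uM stock), 30 min 37C; HTRF cAMP detection.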
Sfp PPTase inh: inhibitors of Bacillus subtilis Sfp phosphopantetheinyl transferase. Q9F4F7. Biochemical Sfp PPTase activity, qHTS. Potency, µM, for the others: max response, negative = inhibition, usual class: inhibitors. 310,000 tested, 3.5% active. AID 1490; active means well fitted inhibition curve with a large enough effect; inconclusive means small, poorly fitted or top-dose-only effect, or another doubt; inactive means no such curve, though single readings can be large or run the other way;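 further: the enzyme is Sfp with the accession as filed and its product quenches rhodamine fluorescence; potency means the concentration at half of the fitted maximal effect; 0% = enzyme reaction without inhibitor and -100% = no enzyme wells; top concentration of the series not given in the record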
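Compounds were incubated with enzyme (final 15 nM) for 15 min at room temperature before substrate addition started the reaction. Fluorescence at 525 nm excitation, 598 nm emission was recorded immediately and after 30 minutes.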
* hit, by the source's call; ? = inconclusive; . = not tested or not shown; & = joins results of further samples; [ ] = another dose, or the depositor's remark. Compounds as they come; about 5.3% have a hit in one of these screens.

SMILES	gsp agonist	Menin-MLL FL inh	TRPV1 PAM	CtBP-E1A inh	ClpP mod	gsp antag	Sfp PPTase inh
O=S(=O)(NCc1cccnc1)c1cc(Cl)ccc1Cl	1%	0.0	-5	-2	-1.6%	-1%	9%
CCN(CC)C(=O)Cn1cc(C(=O)C(=O)N2CCCc3ccccc32)c2ccccc21	-70%[inhibitor]	-2.4	19	3	-1.7%	-25%	8%
CS(=O)(=O)c1ccccc1C(=O)Nc1ccc(-c2nc3ccccc3[nH]2)cc1	23%	6.2	-3	.	-8.4%	-16%	18%
N#Cc1cc(-c2ccc(Cl)cc2)cnc1Sc1ccccc1	0%	-0.6	.	13	?	11%	-13%
COc1ccc(NC(=O)CCNC(=O)c2ccco2)cc1Cl	23%	-3.0	13	0	.	-4%	13%
COc1ccc(C(=O)Nc2nccs2)cc1OC	4%	3.2	1	-28	-3.2%	4%	13%
C=CCNCCCCOc1ccccc1	0%	3.7	-23	-14	1.4%	10%	15%
COc1cccc(NC(=O)CSc2nc3c([nH]c4ccccc43)c(=O)n2C)c1	12%[15.4 µM]	-0.3	18	5	.	5%	14%
CNC(=S)N1CCn2cccc2C1c1cc(OC)c(OC)c(OC)c1 (stereo not given)	3%[15.4 µM]	0.3	-8	15	.	-8%	17%
CSc1ccc(C(=O)C2CCCN(C(=O)c3ccc4c(c3)OCO4)C2)cc1 (stereo not given)	-1%	.	-1	-9	-3.4%	?	-2%
O=C(Nc1ccc(F)cc1F)C1CC(=O)N(Cc2ccccc2)C1 (stereo not given)	-22%	.	-12	0	0.4%	6%	.
CCN1CCN(c2ccc(S(=O)(=O)N3CCCCC3)cc2NC(=O)COc2ccc(Cl)c(C)c2)CC1	1%	.	-3	-7	-7.4%	-7%	?
CCOC(=O)N1CCC(N2CCN(c3ccccc3)CC2)CC1	20%[15.4 µM]	-3.7	-58	-6	-1.5%	7%	11%
CCOC(=O)c1nnn(-c2nonc2N)c1-c1cccc2ccccc12	13%	5.1	3	7	-15%	-10%	6%
CC(NC(=O)c1ccc(NC(=O)CC2SC(N3CCCC3)=NC2=O)cc1)c1ccccc1 (stereo not given)	0%	.	-3	.	-1.6%	-6%	.
CN1CCN(c2ccc(S(=O)(=O)N3CCCCC3)cc2NC(=O)Cc2ccccc2F)CC1	-3%	-2.4	30	6	-16%	7%	-4%
CC(C)[C@H](NC(N)=O)C(=O)Nc1ccc(OCc2ccccc2)cc1	7%[15.4 µM]	-1.4	8	0	-2.8%	6%	-16%
Cc1ccc(N(CC(=O)Nc2ccc3c(c2)OCCO3)S(=O)(=O)c2c(C)noc2C)cc1	-10%	0.5	0	-3	-0.2%	-35%	10%
O=C(CCC(=O)NNC(=O)COc1ccccc1)NCc1ccccc1	5%	1.7	16	-1	-1.0%	12%	7%
C(=C\c1ccccc1)/C=N/Nc1nc(N2CCCCC2)nc(N2CCCCC2)n1	-29%	1.3	-9	3	0.0%	-1%	-6%
COc1ccccc1NC(=O)c1oc2ccccc2c1NC(=O)C1CC1	?	.	-5	17	3.0%	?	-20%
CCOc1ccccc1NC(=O)c1ccc2c(c1)C(=O)N(C(C)(C)C)C2=O	-4%[15.4 µM]	-3.8	-3	-18	-3.0%	7%	-4%
O=C(CN(Cc1ccccc1F)C(=O)c1csnn1)NC1CCCCC1	0%[15.4 µM]	3.4	-1	-11	-1.7%	-10%	6%
Cc1ccc(-c2cn(S(=O)(=O)c3cccc([N+](=O)[O-])c3)nc2N)cc1	12%[15.4 µM]	4.5	-1	.	.	-49%	0%
CN(CC(=O)Nc1ccc(N2CCOCC2)cc1)C(=O)Cc1ccccc1	12%	.	-9	0	0.9%	7%	.
CCCC(=O)c1ccc(N2CCN(S(=O)(=O)c3ccccc3)CC2)c(F)c1	11%	0.0	-11	-1	-8.5%	-14%	2%
CN(C(=O)COc1ccccc1)c1nnc(C23CC4CC(CC(C4)C2)C3)s1	5%	-1.6	15	0	2.7%	6%	1%
O=C(NCC(=O)N(c1ccc(F)cc1)C(C(=O)NC1CCCC1)c1cccnc1)c1cccs1 (stereo not given)	-8%	-7.4	-2	4	.	5%	29%
CCc1ccc(N2CC(C(=O)N3CCN(c4ccc([N+](=O)[O-])cc4)CC3)CC2=O)cc1 (stereo not given)	?	.	.	5	-2.1%	.	.
O=C(c1ccccc1)c1ccc(C(=O)N2CCOCC2)cc1	-32%[inhibitor]	2.5	0	-1	-0.6%	6%	-2%
Cc1ccc(OCc2nnc(SCC(=O)O)n2N)cc1	0%	0.1	5	11	0.7%	-2%	-11%
C#CCN(C[C@@H](CC(C)C)NC(=O)OC(C)(C)C)S(=O)(=O)c1ccc(Br)cc1F	.	.	.	3	0.7%	-11%	.
CC(=O)N1CCN(Cc2nc3cc(NC(=O)c4ccccc4)ccc3n2C)CC1	-25%	0.9	-7	5	0.9%	-2%	-20%
Nc1cc(N)nc(SCCOc2ccccc2)n1	7%	-0.3	3	-10	-2.9%	-6%	0%
CN(C)CC/C=C1\c2ccccc2COc2ccccc21	.	?	1	-4	-0.4%	3%	11%&4%&-6%&-1%
CCC(OC(=O)c1cc2sccc2n1C)C(=O)NCC1CCCO1 (stereo not given)	-1%	4.2	0	-4	-2.0%	-11%	1%
Cc1ccc(-c2cccc(C3CC=CC4C3C(=O)N(Cc3ccccc3)C4c3cc(C)ccc3F)c2)cc1 (stereo not given)	?	-1.6&13	-24	-5	-2.1%	7%	10%&0%
COc1ccc(C(=O)CC(=O)C(=O)Nc2cccc(F)c2)cc1	-7%	8.4	10	-3	.	-3%	9%
O=C(NN=C1CCCCCCC1)c1ccc(F)cc1	0%[15.4 µM]	-3.0	-15	-18	.	-5%	-5%
COCc1cc(C)nc(SCC(=O)Nc2ccccc2C)c1C#N	-16%	-4.8	13	3	-0.1%	3%	4%
Cc1ccc(CN2CCNC(=O)C2CC(=O)NCc2csc(C(C)C)n2)cc1 (stereo not given)	-48%[inhibitor]	.	6	-11	-0.3%	6%	1%
COC(C[C@H]1O[C@H]1[C@@H](O)COCc1ccccc1)OC	-83%[inhibitor]	2.6	11	.	0.4%	16%	13%
Cc1cc(Cl)ccc1OCC(=O)NNC(=O)c1cnccn1	-2%[15.4 µM]	-3.5	-3	-8	.	2%	26%
Cc1ccccc1C(N)=O	.	.	.	4	-1.0%	4%	.
COc1ccc(NC(=O)Cn2cccc2)c(OC)c1	?	-0.1	.	-2	0.0%	9%	-3%
Cc1cc2nc(SCC(=O)O)nc(C)c2cc1C	-6%	4.3	17	-5	-15%	-5%	8%
NC(=O)CC(NC(=O)Cc1ccc(Br)cc1)c1ccc(N2CCc3ccccc3C2)c([N+](=O)[O-])c1 (stereo not given)	-2%	-1.0	24	-10	-3.2%	-17%	8%
C=C1CCC2C(C)(C)[C@@H](O)CC[C@@]2(C)[C@@H]1COc1ccc2ccc(=O)oc2c1 (stereo not given in full)	5%	-0.3	-1	.	4.1%	-20%	6%
COCCN(C(=S)Nc1ccc(Cl)cc1OC)C1CCN(C(C)=O)CC1	8%[15.4 µM]	0.3	-4	-8	.	-8%	?
C=CCN1C(=O)c2ccc(C(=O)OCC(=O)N(C)C3CCCCC3)cc2C1=O	37%[15.4 µM]	-0.7	2	2	.	-5%	11%
O=C(CN1CCCC1=O)NC1C2CC3CC(C2)CC1C3 (stereo not given)	?	3.7	-9	-16	0.7%	12%	24%
O=C(COC(=O)c1cnc(Cl)c(Cl)c1)NCCC1=CCCCC1	-20%[15.4 µM]	3.0	-13	4	.	-12%	14%
CCCCCCOC1(c2ccccc2)OC(=O)c2ccccc21 (stereo not given)	-35%[inhibitor]	4.6	-1	11	2.9%	-4%	-1%
CCOc1ccc(CCNC(=O)c2nnn(CC(=O)Nc3ccc(C)cc3)c2N)cc1OCC	29%	.	21	-3	0.5%	6%	6%
Cc1ccc(N2C(=O)N3[C@H](c4ccc(F)cc4)[C@@H]4C(=O)N(C5CCCCC5)C(=O)[C@@H]4[C@]3(C)C2=O)cc1	?	0.1	-3	-10	3.5%	-3%	0%
Cn1c(=O)[nH]c(=O)c2c1nc(CN1CCN(Cc3ccccc3)CC1)n2CC(N)=O	-22%	-0.9	4	7	-2.2%	1%	34%[activator]
Cc1cccc(Cn2c(NCCO)nc3c2c(=O)n(C)c(=O)n3C)c1	14%	0.0	.	-1	-0.4%	-9%	21%
O=C(NCCNc1ccc([N+](=O)[O-])cc1C(F)(F)F)c1ccccc1	-3%	-1.9	-6	-5	-0.8%	33%[activator]	5%
O=S(=O)(Nc1ccccc1F)c1cccc(NC(=S)NCCN2CCOCC2)c1	-86%[inhibitor]	.	.	0	-0.6%	-4%	.
CCCCNC(=S)N(Cc1ccco1)Cc1cc2cc3c(cc2[nH]c1=O)OCCO3	30%	5.3	1	6	-2.7%	-5%	-4%

More results follow:
SMILES	gsp agonist	Menin-MLL FL inh	TRPV1 PAM	CtBP-E1A inh	ClpP mod	gsp antag	Sfp PPTase inh
COc1ccc(Cl)c2sc(NC(=O)C3=COCCO3)nc12	0%[15.4 µM]	.	?	1	.	0%	.
Cc1nn(C)cc1[C@@H]1C[C@H]2CN(Cc3cccc(Cl)c3)C(=O)[C@]23CCCN13	-28%	1.4	4	-2	.	0%	3%
C[n+]1ccccc1C1CCCC/C1=N\NC(N)=S (stereo not given)	?	0.7	-3	-20	-1.2%	-1%	-6%
CCOC(=O)Cn1nnc(-c2ccc(SC)cc2)n1	-1%	3.5	-26	9	0.9%	-20%	3%
c1cnc2nc3c4ccccc4c4ccccc4c3nc2c1	-4%	.	.	?	.	-5%	.
CS(=O)(=O)N(Cc1ccccc1)c1ccc(C(=O)Nc2cccnc2)cc1	16%	2.0	-7	-11	-11%	20%	19%
Oc1c(N=NC(=S)Nc2ccccc2F)c2ccccc2n1Cc1ccc(Cl)cc1	-21%	-2.2	15	.	1.6%	4%	2%
